# Menin MLL FP FL: menin-MLL binding inhibition, fluorescein peptide | Fluorescence polarization, fluorescein-MLL peptide displacement from menin | FP activity change, % at 61.4 µM | 290,000 tested, under 10 active | AID 1766; inconclusive = falling polarisation curve, or a change in total fluorescence; inactive = total fluorescence flat and polarisation flat or rising; no compound was filed as active; the % refers to the polarisation; negative = inhibition;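 also: % of control where 0% means no effect; inhibitors lower the polarisation; unlabelled MLL peptide was the positive control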
# gsp antagonist: antagonizes gsp, the McCune-Albright syndrome mutation. gsp-mutant cells, cAMP HTRF, 30 min; control for the full effect not named in the record. Potency, µM (series often up to 76.9 µM), inactives show at the highest dose activity change, negative = inhibition, most hits filed as inhibitors. 0.4% of 340,000 active; active = falling curve of any shape with a large fitted effect; inconclusive = falling curve, mostly with a smaller effect; inactive = flat or rising curve; cell line not stated here;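 also: intracellular cAMP measured with PDE inhibitor Ro 20-1724 present during compound exposure; potency is read from the fitted curve at half-maximal effect; % is scaled to controls: 0 for no effect and ±100 for the full control effect; nearly all actives have a fitted effect of over 65% in size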
#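 Measurement of cellular cAMP by homogeneous time-resolved fluorescence following a 30 min compound exposure at 37C. The PDE inhibitor […] was present throughout; the assay buffer was DPBS with 0.05% BSA and 0.005% Tween 20.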
# TRPML1 blocker: human mucolipin-1 channel inhibition; AID 624415; activity change, negative = inhibition, % (test concentration not listed); TRPML1-inducible cells, Ca2+ dye fluorescence, FDSS; active compounds read low; inhibition of EC80 agonist-evoked calcium signal; Q9GZU1; 0.02% of 390,000 active; in the data active means activity change below about -50%; inconclusive means about -30% to -50%; inactive means above about -30%;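 also: stimulus is agonist 54-4 at its EC80 concentration; % is scaled to controls: 0 for no effect and ±100 for the full control effect; compound concentration not given in the record; the text of the record puts the active cut at -80%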
# Target sequence (Q9GZU1 whole entry, looked up): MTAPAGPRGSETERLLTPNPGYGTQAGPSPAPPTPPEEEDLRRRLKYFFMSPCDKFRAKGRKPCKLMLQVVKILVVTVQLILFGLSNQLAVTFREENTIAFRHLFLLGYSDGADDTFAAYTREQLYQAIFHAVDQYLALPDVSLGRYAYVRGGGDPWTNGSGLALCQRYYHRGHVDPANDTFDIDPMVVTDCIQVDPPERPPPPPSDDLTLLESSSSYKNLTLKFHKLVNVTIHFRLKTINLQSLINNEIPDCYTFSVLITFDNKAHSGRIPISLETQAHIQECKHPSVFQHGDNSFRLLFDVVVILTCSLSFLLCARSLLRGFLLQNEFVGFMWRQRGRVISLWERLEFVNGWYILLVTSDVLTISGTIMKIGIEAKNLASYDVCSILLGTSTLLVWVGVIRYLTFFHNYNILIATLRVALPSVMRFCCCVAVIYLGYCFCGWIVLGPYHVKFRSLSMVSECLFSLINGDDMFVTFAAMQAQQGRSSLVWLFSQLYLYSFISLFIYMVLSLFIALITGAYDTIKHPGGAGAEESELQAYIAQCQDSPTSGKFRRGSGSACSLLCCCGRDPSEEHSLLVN
#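 Tet-induced TRPML1-DL cells loaded with Ca8 no-wash calcium dye were read kinetically on FDSS. Compound addition was followed by EC80 agonist 54-4 (4 uM final); inhibition was read over 110 s.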
# ClpP mod: qHTS Assay for Activators of ClpP. purified B. subtilis ClpP, FRET peptide cleavage, 20 min. ATP-dependent Clp protease proteolytic subunit (Bacillus subtilis (strain 168)), P80244. 1.9% of 340,000 active. Potency, µM (series often up to 57.5 µM), for the others: top-dose activity change, negative = active; active = well fitted falling curve with a large enough effect; inconclusive = small, poorly fitted or top-dose-only effect; inactive = no such curve, though single readings can be large or run the other way; also: potency is read from the fitted curve at half-maximal effect; the source files actives as falling curves though it sought activators and does not explain the sign; nearly all actives have a fitted effect of over 65% in size; many hits overshoot -100%
# Target sequence (P80244 whole entry, looked up): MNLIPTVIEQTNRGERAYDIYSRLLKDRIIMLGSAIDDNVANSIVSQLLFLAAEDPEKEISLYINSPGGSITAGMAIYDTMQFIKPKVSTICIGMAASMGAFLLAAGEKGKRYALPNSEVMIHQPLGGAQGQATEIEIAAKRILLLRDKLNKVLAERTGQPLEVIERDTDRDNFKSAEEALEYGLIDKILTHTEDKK
#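 ClpP 10 microg/mL final, pH 8 Tris/KCl buffer with BSA, glycerol, Tween-20; compound pinned in; FRET-FV substrate; RT 20 min; Ex320/Em430; ΔFRET vs ADEP 5.8 microM, DMSO, no enzyme.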
# gsp agonist: activates gsp, the McCune-Albright syndrome mutation. gsp mutant cells, cAMP HTRF, 30 min; control for the full effect not named in the record. Potency, µM (doses to about 76.9 µM), for the others: at the top dose activation (cAMP increase), actives largely listed as activators. 0.13% of 340,000 active; active = well fitted activation curve with a large enough effect; inconclusive = small, poorly fitted or top-dose-only effect, or another doubt; inactive = no such curve, though single readings can be large or run the other way; cell line not stated here;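 also: phosphodiesterase inhibitor Ro 20-1724 added with compounds to block cAMP breakdown; potency is read from the fitted curve at half-maximal effect; nearly all actives have a fitted effect of over 60% in size; about a fifth of the inactives were tested at one dose only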
#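 Cells in DMEM/10% FBS with G418 were pretreated with compounds in DMSO plus […] (300 uM stock) for 30 min at 37C. cAMP was measured by HTRF (cAMP-d2 plus anti-cAMP antibody-K) after 30 min at room temperature.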
# TRPML1 ag: human mucolipin-1 channel agonism; Q9GZU1; activation, % (no concentration beside the values); 0.12% of 410,000 active; TRPML1-expressing cells, Ca2+ dye fluorescence, FDSS; host cell line not named in the record; reference of the full effect not given here; in the data active = activation above about 50%; inconclusive = about 30% to 50%; inactive = below about 30%; also: 0% is about no effect; the text of the record puts the active cut at 80%
#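 Tet-induced TRPML1-DL cells, 1,500 per well, cultured overnight, were loaded with a no-wash Ca2+ dye for 45–90 min. Calcium fluorescence was recorded on the FDSS for 110 s after compound addition, before the EC80 agonist (4 uM 54-4) was added.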
# Active calls of the source: *; u = inconclusive; x = not tested or not shown; & = joins results of further samples; [ ] = another dose, or the depositor's remark.
SMILES	Menin MLL FP FL	gsp antagonist	TRPML1 blocker	ClpP mod	gsp agonist	TRPML1 ag
CCOC(=O)C1=C(C)NC(=O)NC1c1ccccc1Cl (configuration not stated)	1.7	1%	37	-0.8%	-32%[inhibitor]	-0.1
CC(=O)Nc1ccc(S(=O)(=O)N2CCC(NC(=O)C(Cc3ccccc3F)NC(C)=O)CC2)cc1 (configuration not stated)	-2.5	12%	4	x	-1%	-0.3
C/C(=N\NC(=O)Cn1ccc(C(F)(F)F)n1)c1ccc2c(c1)OCO2	0.3	2%	6	0.3%	16%[15.4 µM]	-1.4
CCOc1c(Br)cc(/C=C2/SC(=O)N(CC(=O)N3CCCC3)C2=O)cc1OC	-0.4	u	-4	5.0%	-7%	-0.1
CCCOc1ccc(-c2c(C(=O)N/N=C/C3CCCCC3)nnn2-c2nonc2N)cc1	x	-4%	9	-1.5%	4%	2.4
O=C(c1ccsc1)N1CCCC(N2CCOCC2)C1 (configuration not stated)	x	-3%	-11	-0.8%	5%	0.2
CC1=C2C3OC(=O)C(C)C3CCC2(C)C=C(Cl)C1=O (configuration not stated)	x	x	9	3.7%	11%	0.1
Cc1ccc(S(=O)(=O)N(CC(=O)Nc2ccccc2C(=O)O)c2cccc(Cl)c2C)cc1	4.4	-23%	-5	-18%	16%	2.4
CCn1c(SCC(=O)Nc2ccccc2C)nnc1-c1ccccc1O	-0.2	-1%	15	-3.4%	0%	1.5
O=c1c2ccccc2nnn1CSc1nc2sc3c(c2c(=O)n1CC1CCCO1)CCC3 (configuration not stated)	-2.4	-14%	10	-0.1%	u	1.6
O=C(CSc1ccc(-c2ccccc2)nn1)N1CCCc2ccccc21	4.3	-14%	-17	-1.3%	19%	4.9
Cc1ccc(S(=O)(=O)N2CCOCC2)cc1C(=O)NNC(=O)c1ccoc1C	-0.7	7%	-10	-2.0%	4%	0.3
Cc1ccc(S(=O)(=O)NCC(=O)N(CC(=O)NCc2ccco2)Cc2cccs2)cc1	-0.9	-5%	4	-0.9%	1%	0.1
O=C(COC(=O)c1ccc(O)cc1)Nc1ccc2c(c1)OCCO2	x	-3%	-1	-2.5%	-16%[15.4 µM]	-0.2
COc1cccc(OC)c1NC(=O)C1CCCN1C(=O)Nc1ccccc1Cl (configuration not stated)	1.8	2%	9	-3.0%	-5%[15.4 µM]	-0.9
C[C@H]1CN([C@@H](C)CO)C(=O)CCCn2nncc2CO[C@@H]1CN(C)Cc1ccc(C(F)(F)F)cc1	x	x	3	-0.9%	-7%	0.3
CCCCCCc1cc2cc(S(=O)(=O)c3ccc(Cl)cc3)c(=O)oc2cc1O	12	-9%	10	-21%	-1%	8.0
COc1ccc(CCC(=O)NCc2cnn(C)c2)cc1	11	0%	4	0.0%	-5%	0.2
Cn1c(=O)n(C)c2cc(NC(=O)c3ccccc3)ccc21	x	x	0	-1.0%	-61%[inhibitor]	-0.6
O=C(NCC1CCCC(CNC(=O)N2CCc3ccccc32)C1)N1CCc2ccccc21 (configuration not stated)	-0.6	-11%	-7	0.5%	u	0.5

# Continuation.
SMILES	Menin MLL FP FL	gsp antagonist	TRPML1 blocker	ClpP mod	gsp agonist	TRPML1 ag
CCc1ccc(NC(=O)[C@H](Cc2c[nH]c3ccccc23)NC(=O)[C@@H]2Cc3ccccc3CN2)cc1	3.9	4%	x	-3.6%	x	x
Cc1c(C2(O)CCCCC2)[nH]c2cnccc12	x	1%	39	3.9%	9%	-0.2
Brc1cc2[nH]cnc2c2ccccc12	0.2	-6%	7	-0.4%	36%	0.0
CC(=O)n1nc2nc(C)cc(C)c2c1N	0.1	0%	-17	0.6%	-26%	-0.5
C=CCN1CCN(C(=O)c2c(-c3ccccc3)noc2C)CC1	0.0	6%	-3	0.2%	-23%	0.0
COC(=O)Nc1ccc(S(=O)(=O)N2CCCc3ccccc32)cc1	0.2	20%	-4	0.3%	7%	-0.4
CCN(CC)S(=O)(=O)c1ccc(NC(=O)NCc2noc3ccc(C)cc23)cc1	x	x	-9	1.8%	x	1.5
COc1ccc(NS(=O)(=O)c2ccc3oc(SCC(N)=O)nc3c2)cc1	3.0	12%	8	x	-2%[15.4 µM]	0.3
COc1ccc2nc(/N=C\N(C)C)sc2c1	0.9	8%	4	2.4%	0%	1.3
OCC1(Cc2ccc(Cl)cc2)CCN(Cc2ccc3nsnc3c2)CC1	0.4	-4%	14	x	-2%	0.4
N#CCN1CCN(CC(=O)Nc2ccc(OCc3ccccc3)cc2)CC1	-1.4	-14%	13	0.9%	16%	0.0
Cc1cc(C(=O)CN2C(=O)NC3(CCCC3)C2=O)c(C)n1-c1ccc2c(c1)OCO2	0.6	3%	-2	-4.3%	-7%[15.4 µM]	-0.8
Cc1ccc(C)c(OCC(=O)Nn2c(C)nc3ccccc3c2=O)c1	2.5	2%	26	0.8%	-18%	-1.5
CCOC(=O)CCC(=O)Nc1ccc(S(=O)(=O)N2CCC(C)CC2)cc1	-0.1	2%	-6	0.0%	8%	-1.2
CCCCCSc1nnc(-c2ccccc2NC(C)=O)c(=O)[nH]1	-1.4	9%	-19	x	u	-0.5
CCCOc1ccc(CSCCNC(=S)Nc2ccccc2)cc1	1.3	-6%	18	4.7%	-3%[15.4 µM]	-0.2
CCN(CC)c1ccc2c(C)cc(=O)oc2c1	x	-2%	0	3.7%	x	-0.7
CCN(C1CCS(=O)(=O)C1)S(=O)(=O)c1cccs1 (configuration not stated)	-2.0	-2%	1	-1.2%	-8%	0.5
Cc1cc(OC(=O)c2cc(C(F)(F)F)cc(C(F)(F)F)c2)c([N+](=O)[O-])c(=O)[nH]1	-2.8	-4%	17	0.7%	-127%[inhibitor]	-0.2
Cn1c(C(=O)NC2CCCC2)cc2c(=O)n(C)c3ccccc3c21	2.1	-1%	57	3.9%	u	0.1

# The listing continues:
SMILES	Menin MLL FP FL	gsp antagonist	TRPML1 blocker	ClpP mod	gsp agonist	TRPML1 ag
Cc1cccc(OCC(=O)N(C)CC(=O)Nc2cccc(F)c2)c1C	x	-10%	-11	0.1%	-18%	-0.6
Cc1ccc2c(ccc[n+]2CC(=O)c2ccccc2)c1	3.6	7%	1	18µM*	-39%[inhibitor]	2.2
NS(=O)(=O)c1ccc(N2N=C(c3ccccc3)CC2c2ccccc2Br)cc1 (configuration not stated)	x	-17%	16	4.4%	x	0.2
COc1ccc(C(=O)NCCCc2nc3ccccc3n2Cc2ccccc2C)cc1OC	0.0	-6%	3	-0.6%	-30%	1.0
Cc1ccccc1C(=O)NCC(c1cccnc1)N1CCc2ccccc21 (configuration not stated)	x	x	-10	1.1%	x	0.9
CC(=O)Nc1ccc(-c2cc(C(=O)O)c3cc4ccccc4cc3n2)cc1	x	x	-5	3.4%	2%	-0.4
O=C(N/N=C/c1c(F)cccc1Cl)c1cc(C2CC2)[nH]n1	-3.3	-2%	0	0.8%	-3%	0.0
CN(Cc1ccccc1)C(=O)c1cccc(NC(=O)Cc2ccc(NC(=O)C3CCN(C(=O)C4CCC4)CC3)cc2)c1	x	-8%	25	0.8%	x	-0.8
COc1cc(/C=N/NC(=O)COc2ccc([N+](=O)[O-])cc2)ccc1OCC(=O)N1CCOCC1	x	8%	13	x	-33%[15.4 µM]	0.0
Nc1nc(N)nc(-c2ccc(Cl)c(Cl)c2)n1	x	-3%	24	-27%	x	-0.7
Cc1ccc(NC(=O)CN2C(=O)CNC2=O)cc1	1.0	9%	x	-0.8%	26%	x
CN(CC(=O)Nc1nc2ccccc2s1)S(=O)(=O)c1ccccc1	0.0	-12%[15.4 µM]	-24	-2.6%	3%	1.2
COc1ccccc1C(=O)Nc1nnc(-c2ccc(Cl)cc2)o1	-0.2	2%	16	0.8%	20%	-0.6
CCn1c(SCC(=O)N2CCN(c3ccccc3)CC2)nc2c(c1=O)SC(C)C2 (configuration not stated)	1.2	1%	29	1.5%	24%	2.0
O=C(CCSc1ccccc1)Nc1ccc(S(=O)(=O)Nc2ncccn2)cc1	-1.2	-7%	4	x	7%[15.4 µM]	1.3
COc1ccc(NC(=O)C2CCCCN2N)cc1OC (configuration not stated)	3.1	9%	-17	0.2%	0%	-0.5
Cc1ccccc1OCC(=O)Nc1nnc(S(=O)(=O)N2CCCC2)s1	-0.5	-15%	18&6	0.3%&-2.1%	11%	-0.7&0.7
Cc1coc2cc3oc(=O)c(CC(=O)N[C@@H](CC(C)C)C(=O)O)c(C)c3cc12	14	9%	2	x	-2%	-0.3
Cc1cc(C)n(C(C)CC(=O)NCc2ccc(N(C)C)cc2)n1 (configuration not stated)	x	x	-3	-6.8%	x	0.7
CCC(=O)Oc1ccc2c(=O)c(-c3ccc4ccccc4n3)c(CC)oc2c1C	3.3	1%	-10	-1.7%	1%	0.8

# Taken from the results shown, 5 compounds:
SMILES	Menin MLL FP FL	gsp antagonist	TRPML1 blocker	ClpP mod	gsp agonist	TRPML1 ag
COc1ccc(NC(=O)C2CCCCN2N)cc1OC (configuration not stated)	3.1	9%	-17	0.2%	0%	-0.5
Cc1ccccc1OCC(=O)Nc1nnc(S(=O)(=O)N2CCCC2)s1	-0.5	-15%	18&6	0.3%&-2.1%	11%	-0.7&0.7
Cc1coc2cc3oc(=O)c(CC(=O)N[C@@H](CC(C)C)C(=O)O)c(C)c3cc12	14	9%	2	x	-2%	-0.3
Cc1cc(C)n(C(C)CC(=O)NCc2ccc(N(C)C)cc2)n1 (configuration not stated)	x	x	-3	-6.8%	x	0.7
CCC(=O)Oc1ccc2c(=O)c(-c3ccc4ccccc4n3)c(CC)oc2c1C	3.3	1%	-10	-1.7%	1%	0.8

# New compounds follow
SMILES	Menin MLL FP FL	gsp antagonist	TRPML1 blocker	ClpP mod	gsp agonist	TRPML1 ag
COC(=O)C1=C(C)NC(=O)CC1c1ccccc1OC (configuration not stated)	1.4	-4%	18	x	u	-0.5
CCC(C)Sc1nc2c(c(=O)[nH]c(=O)n2C)n1Cc1ccc(Cl)cc1 (configuration not stated)	1.8	-5%	-4	-3.9%	-2%	-0.2
COc1ccc(COC(=O)c2n[nH]c3ccccc23)cc1F	2.7	-6%	43	-15%	-1%	1.5
C/C(=N\NS(=O)(=O)c1c(C)cc(C)cc1C)c1ccncc1	x	-2%	13	0.0%	u	1.3
CCCn1c(N)c(C(=O)NS(=O)(=O)c2ccc(C)cc2)c(=O)n(C)c1=O	-4.0	2%	2	-1.6%	35%	0.6
CCCCNC(=O)CCCCCn1c(=O)[nH]c2cc(OC)c(OC)cc2c1=O	-8.6	-11%	-1	28µM*	1%	-1.1
CC(C)[C@H](NC(=O)c1cccc(S(=O)(=O)N2CCOCC2)c1)C(=O)Nc1nccs1	-2.2	2%	38	0.2%	11%[15.4 µM]	0.8

# Screening data from PubChem BioAssay.
